Cruzain Triton: cruzain (T. cruzi) inhibition with detergent. purified cruzain, Z-FR-AMC fluorescence, 0.01% Triton. Potency, µM, inactives show max response, negative = inhibition, actives largely listed as inhibitors. hit rate 0.43% among 200,000; active = well fitted curve in the direction sought with a large enough effect; inconclusive = small, poorly fitted or top-dose-only effect, or another doubt; inactive = no such curve, though single readings can be large; an effect the other way counts as inactive or inconclusive;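 also: plate controls were neutral wells for no effect and buffer without enzyme for full effect; nearly all actives have a fitted effect of over 40% in size; top concentration of the series not given in the record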
Target sequence (P25779 123-467 limits assumed): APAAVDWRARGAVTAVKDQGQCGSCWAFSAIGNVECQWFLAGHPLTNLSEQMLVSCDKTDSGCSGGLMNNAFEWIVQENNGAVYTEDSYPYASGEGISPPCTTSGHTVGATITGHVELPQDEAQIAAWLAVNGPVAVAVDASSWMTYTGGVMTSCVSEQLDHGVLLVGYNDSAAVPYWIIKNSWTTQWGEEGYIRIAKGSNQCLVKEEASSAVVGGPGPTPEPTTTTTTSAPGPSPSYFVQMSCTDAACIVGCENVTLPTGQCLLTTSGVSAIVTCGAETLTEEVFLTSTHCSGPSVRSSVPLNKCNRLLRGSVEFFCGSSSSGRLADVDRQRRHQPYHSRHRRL
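Enzyme 1.5 nM, Z-FR-AMC 2 uM, NaOAc 100 mM pH 5.5, DTT 5 mM, Triton X-100 0.01%; 15 min RT compound preincubation; kinetic ex360/em450, 60 s delta.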
SARS PLP yeast: SARS-CoV PLP inhibition in yeast | S. cerevisiae expressing SARS-CoV PLpro, growth rescue; control for the full effect not named in the record | Potency, µM (highest dose often 32.9 µM), without a hit: top-dose activity, positive = growth rescue | hit rate 0.19% among 330,000 | AID 485353; also: 0% is about no effect; nearly all actives have a fitted effect of over 55% in size; growth read by luminescence after 48 h
NS1 function inh: blocks influenza NS1 protein function; S. cerevisiae slowed by influenza A NS1, growth recovery by OD600; hit rate 0.4% among 270,000; Potency, µM (doses to about 46.1 µM), for inactives: top-dose activity, positive = more growth; also: actives are rising curves; nearly all actives have a fitted effect of over 50% in size
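In this qHTS, NS1 from influenza A is expressed in budding yeast, where it slows growth. Cells are switched from glucose to 2% galactose medium (pH 6.0, -URA), treated with compound, and growth recovery is read at OD600.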
LASV entry inh: inhibitors of Lassa virus binding or cell entry | Lassa virus pseudotype entry inhibition, cell reporter; control for the full effect not named in the record | Potency, µM (top dose mostly 37.9 µM), inactives show top-dose activity change, negative = inhibition, actives largely listed as inhibitors | hit rate 1.2% among 300,000 | AID 540256; active means well fitted inhibition curve with a large enough effect; inconclusive means small, poorly fitted or top-dose-only effect, or effect the other way; inactive means flat fitted curve, though single readings scatter; tested in HEK293 cells; also: % is scaled to controls: 0 for no effect and ±100 for the full control effect; nearly all actives have a fitted effect of over 50% in size; luciferase read-out
MARV entry inh: blocks Marburg virus binding to or entry into cells; Marburg virus pseudotyped entry inhibition, cell reporter; control for the full effect not named in the record; about a third of the inactives were read at about 46 µM; Potency, µM (highest dose often 37.8 µM), without a hit: at the highest dose activity change, negative = inhibition, most hits filed as inhibitors; hit rate 1.8% among 300,000; AID 540276; active = well fitted inhibition curve with a large enough effect; inconclusive = small, poorly fitted or top-dose-only effect, or effect the other way; inactive = flat fitted curve, though single readings scatter; tested in HEK293 cells; about a fifth of its hits are not listed in these tables; also: % is scaled to controls: 0 for no effect and ±100 for the full control effect; luciferase read-out
2A StopGo: FMDV 2A StopGo reporter, luciferase signal | human cells with a luciferase reporter of 2A StopGo recoding; control for the full effect not named in the record | Potency, µM (titrated, usually from 57.9 µM), for inactives: top-dose signal change, negative = less light | hit rate 1.2% among 410,000 | AID 1159524; active = well fitted falling curve with a large enough effect; inconclusive = small, poorly fitted or top-dose-only effect; inactive = no such curve, though single readings can be large or run the other way; tested in HEK293T cells; also: % is scaled to controls: 0 for no effect and ±100 for the full control effect; nearly all actives have a fitted effect of over 45% in size; luciferase light after 4 h
RE007 growth inh: less growth of the S. pombe RE007 Vpr strain. S. pombe RE007 Vpr strain, BacTiter-Glo ATP luminescence, 24 h; control for the full effect not named in the record. Potency, µM (top dose mostly 92.2 µM), for the others: at the top dose activity change, negative = less growth. hit rate 0.21% among 360,000. AID 651644; active = well fitted falling curve with a large enough effect; inconclusive = small, poorly fitted or top-dose-only effect; inactive = no such curve, though single readings can be large or run the other way;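 also: % is scaled to controls: 0 for no effect and ±100 for the full control effect; nearly all actives have a fitted effect of over 50% in size; the assay follows cell death caused by Vpr and the record does not say whether a fall means rescue or toxicity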
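Fission yeast RE007 carrying one integrated HIV-1 vpr copy, seeded at OD 0.01 in PMG+AL medium with 23 nL pinned compound. Grown 24 h at 30 degrees; viability read by BacTiter-Glo luminescence after 5 min.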
Cruzain inh noDet: cruzain (T. cruzi) inhibition without detergent; purified cruzain, Z-FR-AMC fluorescence, no detergent; P25779; hit rate 2.3% among 200,000; Potency, µM, inactives show max response, negative = inhibition, most hits filed as inhibitors; active = well fitted curve in the direction sought with a large enough effect; inconclusive = small, poorly fitted or top-dose-only effect, or another doubt; inactive = no such curve, though single readings can be large; an effect the other way counts as inactive or inconclusive;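 also: plate controls were enzyme without inhibitor for no effect and buffer without enzyme for full effect; nearly all actives have a fitted effect of over 40% in size; top concentration of the series not given in the record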
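Purified cruzain at 1.5 nM, pre-incubated 15 min with compound at room temperature in 100 mM sodium acetate pH 5.5, 5 mM DTT, 0.00005% Triton X-100. Reaction started with 2 uM Z-FR-AMC; AMC fluorescence increase over 60 s gives rate.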
The depositor's hits bear a star; ? = inconclusive; · = no result given; [ ] = remark or other dose. Unless noted, calls follow the shape of the dose curve; as a rule, active means well fitted rising curve with a large enough effect; inconclusive means small, poorly fitted or top-dose-only effect; inactive means no such curve, though single readings can be large or run the other way. Potency is read from the fitted curve at half-maximal effect.

SMILES	Cruzain Triton	SARS PLP yeast	NS1 function inh	LASV entry inh	MARV entry inh	2A StopGo	RE007 growth inh	Cruzain inh noDet
O=C(O)c1ccccc1C(=O)Nc1cc(-c2ccccc2)[nH]n1	·	0%	2%	21%	?	4%	10%	·
COc1ccc(CN2CCNC(=O)C2CC(=O)N(C)CC2CCOCC2)cc1C (stereo unspecified)	·	-8%	5%	15%	-7%	-20%	-3%	·
CCN(CCC(=O)Nc1cc(OC)cc(OC)c1)Cc1ccccc1	0.9%	3%	-15%	?	?	-12%	7%	-6%
Cn1c(COc2ccc3ccccc3c2)nnc1SCC(=O)O	0.6%	10%	-5%	-2%	-14%	-2%	11%	-1%
O=C(CCOc1cccc(Br)c1)Nc1ccc(F)c(S(=O)(=O)N2CCOCC2)c1	·	2%	·	-27%[46.1 µM]	?	-2%	-23%	·
N#Cc1nc(Cc2cccc3ccccc23)oc1NCCN1CCOCC1	11%	0%	-6%	-25%	2%	-15%	4%	4%
C=CCn1c(SCc2cccc(F)c2)nc2cc(C(=O)N3CCC(C(N)=O)CC3)ccc2c1=O	-11%	7%	5%	?	?	-1%	20%	?
CC(C)(C)OC(=O)NNC(=S)NC1CCCCC1	·	1%	1%	18%	-3%[14.2 µM]	68%[activator]	1%	·
O=C1/C(=C\c2cccnc2)SC(=S)N1C1CCS(=O)(=O)C1 (stereo unspecified)	-10%	-1%	15%	?	?	?	-11%	4%
CN(C)Cc1cc(C(C)(C)C)cc(C(C)(C)C)c1O	·	0%	-3%	·	·	-8%	-9%	·
CCOc1ccc(S(=O)(=O)N2CCCCC2)cc1NC(=O)CN1C(=O)NC(CC)(c2ccccc2)C1=O (stereo unspecified)	·	4%	-9%	?	?	0%	36%	·
O=C(NNc1ncnc2sccc12)c1ccc(Cl)cc1	·	-3%	1%	5%	?	-26%	2%	·
Cn1c(SCC(=O)c2ccc(O)cc2O)nnc1-c1ccccc1	·	-1%	-1%	2%[46.1 µM]	?	11%	1%	·
Cc1c(CC(=O)O)c(=O)oc2cc3oc4c(c3cc12)CCCC4	·	-6%	0%	4%	3%[46.1 µM]	9%	-25%	·
Cc1ccsc1CNCCc1ccc(F)cc1	·	4%	5%	·	·	6%	-5%	·
COc1ccc(NC(=O)CCC(=O)Nc2nnc(C(F)(F)F)s2)c(OC)c1	4.7%	-1%	5%	-6%	-1%	-1%	4%	-8%
CCCC(=O)Nc1nnc(SCC(=O)N2C(C)CCCC2C)s1 (stereo unspecified)	·	0%	3%	-6%[46.1 µM]	?	11%	0%	·
NC(=O)C1=C[C@H](c2ccc(C(F)(F)F)cc2)C[C@H](OCc2ccc(CO)cc2)O1	·	0%	5%	·	·	-16%	0%	·
Cc1ccc(-c2nc3sc4c(c3c(=O)n2N)CCCC4)cc1	-12%	-14%	7%	?	?	-4%	-7%	-1%
C=CCn1c(SCC(=O)/C(C#N)=C(\C)N)nc2sc(C)c(C)c2c1=O	-2.3%	5%	4%	?	-17%[46.1 µM]	-25%	-9%	18%
Cc1occc1-c1n[nH]c(=S)n1CC(C)C	1.6%	5%	-2%	14%	4%	-5%	1%	-9%
COc1ccc(CC(=O)O/N=C(\N)c2ccc(Br)cc2)cc1OC	·	0%	-9%	·	·	-26%	3%	·
COCCn1c(C)cc(C(=O)COC(=O)c2c(C)nn(Cc3ccccc3)c2C)c1C	-0.5%	-5%	0%	7.1µM*	?	-3%	0%	?
O=C(Nc1nc(-c2cccnc2)cs1)c1cccc([N+](=O)[O-])c1	·	-1%	7%	·	20%[46.1 µM]	0%	0%	·
O=C1CC(c2ccccc2)n2nc(NC(=O)c3cccs3)nc2N1 (stereo unspecified)	2.3%	?	2%	8%	7%[46.1 µM]	-4%	0%	8%
The list continues:
SMILES	Cruzain Triton	SARS PLP yeast	NS1 function inh	LASV entry inh	MARV entry inh	2A StopGo	RE007 growth inh	Cruzain inh noDet
CC(C)CN(C(=O)CN(C)CC(=O)Nc1ccc(Cl)c(C(F)(F)F)c1)c1c(N)n(CC(C)C)c(=O)[nH]c1=O	·	-1%	·	-23%[46.1 µM]	-18%[46.1 µM]	-4%	-13%	·
COc1ccccc1C(=O)NNC(=O)c1ccc(NC(=O)C(C)C)cc1	·	1%	3%	13%	6%[46.1 µM]	22%	-8%	·
CCOc1cc(/C=N/NC(=O)C(=O)NCc2cccnc2)ccc1O	·	-4%	9%	?	6%[46.1 µM]	-23%	17%	·
COc1ccc(N2C(=O)C(Cl)=C(Nc3ccccc3O)C2=O)cc1	-8.0%	-31%	-97%	-2%	18%	59%[activator]	-9%	-7%
CCc1nc(SCC(=O)Nc2nnc(C(C)C)s2)n[nH]1	·	·	·	16%	17%[46.1 µM]	23%	6%	·
O=C(c1cc(-c2ccc(Cl)s2)nc2ccccc12)N1CCCC1	·	·	·	1%	-1%	-9%	-20%	·
CCOC(=O)C1=C(C)c2ccccc2OC1(CC)C(=O)OCC (stereo unspecified)	0.6%	-22%	·	·	·	-20%	-11%	6%
COc1ccc(Nc2nnc(SCC(=O)Nc3cc(C)on3)s2)cc1	-5.2%	0%	-8%	-10%	-10%	21%	-11%	-25%
Nc1nc(CN2CCN(Cc3ccccc3)CC2)nc(Nc2ccc3c(c2)OCCO3)n1	0.6%	4%	-3%	-4%	9%	-13%	-9%	5%
O=C(c1ccc(Cl)s1)N1CCCC1	4.3%	-48%	-65%	15%	20%	-9%	1%	1%
O=c1c(Cl)c(NS(=O)(=O)c2ccccc2)cnn1-c1ccccc1	·	-1%	1%	·	·	15%	-9%	·
O=C1C2C(c3ccccc3)=NN(c3ccccc3)C2C(=O)N1c1ccccc1 (stereo unspecified)	-22%	7%	1%	5%	?	-10%	28%	?
O=C(Nc1ccc(Cl)c(Cl)c1)C1CC(=O)N(c2ccc(Br)cc2)C1 (stereo unspecified)	-9.4%	-27%	17%	1%	-5%	·	-13%	20µM*
C=CCN(C(=O)CC(NC(C)=O)c1ccccc1)c1nc(-c2ccc(S(C)(=O)=O)cc2)cs1 (stereo unspecified)	·	-3%	-6%	?	-15%[46.1 µM]	14%	-6%	·
Cc1cc(C=NCCO)c(C)n1-c1cc(Cl)ccc1Cl	·	-8%	·	-8%	-10%[46.1 µM]	7%	18%	·
COCCNC(=O)c1ccc(-n2c(SCc3cccnc3)nc3ccccc3c2=O)cc1	·	0%	0%	·	?	-21%	-2%	·
COC(=O)C1C(=O)/C(=C(/C)N2CCCC2)C(=O)CC1(C)C (stereo unspecified)	4.4%	20%	0%	-5%	14%	20%	0%	6%
O=C(Cn1c(SCC(=O)N2CCc3ccccc32)nc2ccccc21)NC1CCCC1	0.5%	-12%	7%	?	-29%	3%	0%	-2%
CCOc1ccc(NC(=O)C2C3CCC4C(CCC32)C4(Cl)Cl)cc1 (stereo unspecified)	·	-1%	2%	·	·	0%	1%	·
CC(C)c1ccc(OCC(O)Cn2cnc3ccccc32)cc1 (stereo unspecified)	-4.8%	-2%	-56%	0%	?	-22%	20%	-2%
C/C(=N\NC(=O)c1ccccc1O)c1ccc(NC(=O)c2ccccc2)cc1	·	-8%	-29%	?	?	6%	-4%	·
CCn1c(C)nc2cc(C(N)=O)ccc21	·	-1%	7%	·	·	-7%	2%	·
O=C(O)CCc1ccc(-c2ccc(Cl)cc2)n1-c1cccc(C(F)(F)F)c1	?	·	·	4%[46.1 µM]	2%[46.1 µM]	-10%	·	20%
Cc1ccc(-n2c(SCC(=O)NCc3ccc(F)cc3)nc3c([nH]c4ccccc43)c2=O)cc1	-4.2%	·	·	-23%[46.1 µM]	·	-20%	·	16µM*
CC(C)NC(=O)c1onc(CSc2cccc(Cl)c2)c1C(=O)O	0.6%	?	16%	·	·	-12%	2%	-9%
Remaining list, next part:
SMILES	Cruzain Triton	SARS PLP yeast	NS1 function inh	LASV entry inh	MARV entry inh	2A StopGo	RE007 growth inh	Cruzain inh noDet
CN1CCc2c(sc3c2C(=O)NC(c2ccc(-c4ccc(Cl)cc4)o2)N3)C1 (stereo unspecified)	·	-2%	-5%	22%	?	-15%	-20%	·
Cc1nc(-c2ccc(Cl)cc2)sc1CCNC(=O)C(=O)Nc1ccccc1C#N	-2.9%	·	·	1%[46.1 µM]	·	-2%	·	-4%
COc1ccc(Nc2nc3ccccc3n3nnnc23)cc1	-9.8%	-4%	-7%	-29%[14.3 µM]	3%	8%	11%	-5%
O=C(CSc1nnc(-c2ccco2)n1Cc1ccccc1)NC(=O)NCc1ccccc1	-7.8%	-8%	-7%	7%	-13%	?	-2%	7%
O=C(NC1CCCCCC1)c1ccccc1-c1ccccc1	-1.2%	-18%	-1%	-14%	-32%	-13%	8%	-14%
CCOc1ccc(C)cc1S(=O)(=O)n1nc(C)cc1C	·	1%	·	0%	-24%[46.1 µM]	-15%	2%	·
Cc1c(-n2c(SCC(=O)C(C)(C)C)nc3ccccc3c2=O)c(=O)n(-c2ccccc2)n1C	·	-3%	·	-5%	?	-21%	-10%	·
CCCc1cc(=O)[nH]c(SCC(=O)N2CCC(C(=O)OCC)CC2)n1	-1.0%	4%	3%	3%	-1%	22%	-2%	-13%
O=C(c1ccccc1)N1N=C(C(F)(F)F)CC1(O)c1ccccc1 (stereo unspecified)	·	-5%	-28%	·	·	-16%	5%	·
COc1cc(C2c3[nH]c4ccccc4c3C[C@H]3C(=O)N(C4CC4)CC(=O)N23)ccc1OC(C)C (stereo partly specified)	·	-1%	-6%	22%[46.1 µM]	?	-4%	-2%	·
O=C(CN1CCN(S(=O)(=O)c2ccc(F)cc2)CC1)NC1CC1	·	?	-4%	·	·	-19%	4%	·
Cc1cc(C)c2nc(NC(=O)[C@@H](NC(=O)c3cccc(S(=O)(=O)N4CCOCC4)c3)C(C)C)sc2c1	-2.4%	1%	6%	?	-34%	-6%	-20%	19%
CCN1CCN(CC(=O)N2CCCC(C(=O)c3ccc(Oc4ccccc4)cc3)C2)CC1 (stereo unspecified)	·	0%	-40%	·	·	-4%	8%	·
CCCC1=NN2C(=N)/C(=C\c3cc(C)n(-c4cccc(C)c4)c3C)C(=O)N=C2S1	-10%	-11%	-4%	7%	5%	0%	8%	?

Compounds as they come; overall some 4.7% were active at least once.
